# High-throughput results: PubChem, several laboratories
# Arbovirus inh – arbovirus infection inhibition | arbovirus infection cell-based antiviral screen | inhibition, % at 10 µM | 200,000 tested, 0.37% active;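 active = inhibition from about 30%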;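 note: bluetongue infection of BSR cells; cell survival read as ATP light after 72 h; 0% = infected wells without compound and 100% = uninfected wells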
# YopH inh – blocks Yersinia enterocolitica YopH tyrosine phosphatase | fluorescence Ex485/Em525 | inhibition, %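 (about 10 µM by stock and volumes)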 | 140,000 tested, 0.16% active;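 active = inhibition of 50% or more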;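 note: controls were vehicle for no effect and minimum signal wells for full effect; inactives centre near -20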
# RecA intein inh – inhibitors of M. tuberculosis RecA intein splicing; inhibition, %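 (about 9 µM by stock and volumes)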; 290,000 tested, 0.75% active; cell-free RecA intein splicing, fluorescence; AID 2221; in the data active = inhibition above about 30%; inconclusive = no clear call, values can overlap the other calls;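 note: 0% = vehicle wells and 100% = reference inhibitor control wells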
# Target sequence (P9WHJ3 whole entry, looked up): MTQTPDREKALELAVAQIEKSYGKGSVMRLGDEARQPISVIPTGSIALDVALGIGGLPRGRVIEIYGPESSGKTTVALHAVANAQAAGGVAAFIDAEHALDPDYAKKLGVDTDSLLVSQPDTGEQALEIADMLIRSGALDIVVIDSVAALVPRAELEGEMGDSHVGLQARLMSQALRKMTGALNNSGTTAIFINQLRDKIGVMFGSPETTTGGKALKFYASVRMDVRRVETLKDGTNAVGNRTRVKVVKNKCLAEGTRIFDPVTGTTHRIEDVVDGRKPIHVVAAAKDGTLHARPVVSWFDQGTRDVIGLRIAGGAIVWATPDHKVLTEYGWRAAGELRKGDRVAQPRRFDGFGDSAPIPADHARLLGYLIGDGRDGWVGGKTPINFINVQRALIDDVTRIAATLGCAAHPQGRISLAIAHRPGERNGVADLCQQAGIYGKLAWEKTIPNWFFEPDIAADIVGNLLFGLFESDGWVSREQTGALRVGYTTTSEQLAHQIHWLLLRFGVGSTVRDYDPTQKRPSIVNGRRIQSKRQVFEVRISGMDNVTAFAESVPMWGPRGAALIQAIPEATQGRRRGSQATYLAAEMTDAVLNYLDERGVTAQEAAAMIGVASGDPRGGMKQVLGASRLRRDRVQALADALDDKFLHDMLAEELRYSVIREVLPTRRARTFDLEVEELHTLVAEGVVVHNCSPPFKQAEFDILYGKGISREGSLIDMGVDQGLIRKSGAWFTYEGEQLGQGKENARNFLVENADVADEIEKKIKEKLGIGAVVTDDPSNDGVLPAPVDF
# Mtb growth – M. tuberculosis H37Rv growth inhibitors, H37Rv strain (AID 1626); M. tuberculosis H37Rv growth inhibition; higher % means a stronger effect; one-dose inhibition, % at 10 µM; IC50 in µM for titrated hits; 220,000 tested, 0.95% active;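 active = confirmed in a dose series; inconclusive = inhibition above 80% but not taken into the dose series; inactive = below 80% or under 30% at every dose of the series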;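 note: bacteria incubated seven days before Alamar blue readout; 0% = bacteria only wells and 100% = bacteria with antibiotic wells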
# Mtb bLac sens – beta-lactam sensitization of Mtb H37Rv | M. tuberculosis H37Rv growth with meropenem, percent inhibition; hits of this screen are not shown here | inhibition, % at 25 µM | 330,000 tested, 0.27% active;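 active = about 74% or more and at least 40 points above the plate without the antibiotic, then above 30% in a dose series; inconclusive = first-round hits that could not be retested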;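 note: growth measured after seven days incubation then overnight dye step; 0% = bacteria only wells and 100% = bacteria with antibiotic; twin plates without the antibiotic show which effects depend on it; some results filed as inactive read as strong as hits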
# Numbers without * were called inactive; ? = inconclusive; . = no result given; & = joins results of further samples. Only part of the results is shown; rates above refer to the full screens.
molecule | Arbovirus inh | YopH inh | RecA intein inh | Mtb growth | Mtb bLac sens
Cc1cc(C)c(S(=O)(=O)Nc2ccc3c4c(cccc24)CC3)c(C)c1 | -10 | -26 | 15 | 1% | -1
O=C1SCC(c2ccccc2)=NN1Cc1ccccc1 | 2 | -9 | 0.2 | 17% | 3
CCc1nc(Nc2cc(OC)ccc2OC)c2oc3ccccc3c2n1 | . | . | -1.0 | . | 9
O=C(COC(=O)c1ccc(O)cc1)Nc1ncc(Cl)cc1Cl | 3 | . | 1.9 | -3% | 1
CCOC(=O)c1ccccc1NC(=O)C1=COCCO1 | . | . | -1.5 | . | -12
O=c1c2ccccc2ncn1-c1ccc(Cl)c(Cl)c1 | -1 | -36 | -0.8 | -7% | -2
COC(=O)c1c(C)oc(C)c1S(=O)(=O)N(C)C1CCCCC1 | . | . | 2.0 | -5% | -5
CCCCCC(=O)NC(NC(=S)Nc1ccc(S(N)(=O)=O)cc1)C(Cl)(Cl)Cl (configuration not stated) | 14 | -26 | 4.6 | -3% | 10
COCCN(C(=O)COC(=O)C1CC1)c1c(N)n(Cc2ccccc2)c(=O)[nH]c1=O | . | . | 1.2 | . | -10
CCN(CC)S(=O)(=O)c1ccc(-c2nnc(SCC(=O)Nc3nnc(C)s3)n2CC)cc1 | 1 | -21 | -2.9 | -7% | 0
Cc1ccc(OC(C)c2nnc(N)s2)cc1Cl (configuration not stated) | -7 | 10 | 2.1 | . | 16
COc1ccccc1N1CCN(CC(=O)Nc2ccc(Cl)c(C(F)(F)F)c2)CC1 | -26 | -23 | 9.9 | 6% | 20
Cc1cc(C)nc(N(C#N)CC(=O)N2CCC(C(N)=O)CC2)n1 | 0 | -22 | -0.3 | -9% | 2
Cc1ccc(C(C)n2cc(C(=O)NCc3cccnc3)nn2)cc1 (configuration not stated) | 8 | -5 | 1.8 | -8% | -8
Cc1ccc(C)c(N(CC(=O)NC(C)(C)C)C(=O)CCC(=O)Nc2nccs2)c1 | . | . | -3.5 | . | -4
COc1ccccc1NC(=O)CNS(=O)(=O)c1ccccc1 | 2 | -19 | -0.7 | -2% | ?
COc1cccc(CN2CC(C(=O)NCc3ccc(C)c(F)c3)CCC2=O)c1 (configuration not stated) | . | . | 0.7 | . | -3
CC(NC(=O)CCC(=O)c1cccs1)c1ccccc1 (configuration not stated) | . | . | 0.7 | . | -1
CCN(C(=O)c1ccnn1C)c1ccccc1 | 1 | -15 | 0.4 | -9% | 4
CCOc1cc(N(CC)CC)ccc1/C=C(/C#N)c1nc2ccccc2[nH]1 | -8 | -12 | -14 | . | 9
COc1ccc(OC)c(S(=O)(=O)N2CCC(C(=O)NCc3ccccn3)CC2)c1 | . | . | -0.2 | . | -2
COc1ccc(S(=O)(=O)N2CCOCC2)cc1NC(=O)CSc1nnc2c(n1)[nH]c1ccccc12 | . | . | 2.7 | -6% | -6
Cn1cc(C(=O)Nc2ccc3c(c2)CCC3)cn1 | -5 | -5 | -3.4 | -4% | -3
CCOc1ccc(NC(=O)C(Cc2ccccc2)N2C(=O)c3cccc4cccc(c34)C2=O)cc1 (configuration not stated) | -5 | . | -0.8 | -2% | 2
CCC(=O)N1CCc2cc(S(=O)(=O)Nc3ccc4c(c3)OCCO4)ccc21 | 5 | -12 | -4.4 | -3% | -9
CCOC(=O)CC(=O)c1[nH]c(C)c(C(=O)OCC)c1C | -2 | . | -2.8 | 4% | -2
COc1ccc(C(C)=O)cc1COC(=O)CCCN1C(=O)c2ccccc2C1=O | 2 | . | 1.8 | -8% | -8
C=CCOc1ccccc1CN1CCCC(CCC(=O)N(C)CCc2ccccn2)C1 (configuration not stated) | 1 | . | -1.1 | -1% | -5
c1ccc2cc3[nH]c(CN4CCOCC4)nc3cc2c1 | -14 | -22 | 1.2 | 2% | -2
CC1=Nc2ccc(C)cc2/C1=C/c1c(N)n2oc(C)cc2nc1=O | -4 | . | -1.9&-2.5 | -1% | -11&5

# Record cards, from the list above.
# O=C(COC(=O)c1ccc(O)cc1)Nc1ncc(Cl)cc1Cl is listed with Arbovirus inh = 3; YopH inh = .; RecA intein inh = 1.9; Mtb growth = -3%; Mtb bLac sens = 1
# CCOC(=O)c1ccccc1NC(=O)C1=COCCO1 is listed with Arbovirus inh = .; YopH inh = .; RecA intein inh = -1.5; Mtb growth = .; Mtb bLac sens = -12
# CCc1nc(Nc2cc(OC)ccc2OC)c2oc3ccccc3c2n1 is listed with Arbovirus inh = .; YopH inh = .; RecA intein inh = -1.0; Mtb growth = .; Mtb bLac sens = 9

# Later entries.
molecule | Arbovirus inh | YopH inh | RecA intein inh | Mtb growth | Mtb bLac sens
COc1ccc([N+](=O)[O-])cc1NC(=O)C(C)Sc1nc(-c2ccccc2)cs1 (configuration not stated) | -7 | -21 | 4.3 | 8% | 6
Cc1cnn(C2CCN(C)CC2)c1N | 2 | 6 | 1.1 | 1% | -18
COC(=O)c1ccc(C2Nc3ccc(/C(C)=N/NC(=O)C(OC)c4ccccc4)cc3C3C=CCC32)cc1 (configuration not stated) | 2 | 1 | 5.3 | 6% | 1
O=C1c2ccccc2C(=O)C12Cc1ccccc1N1CCN(c3ccccc3)CC12 (configuration not stated) | 7 | -24 | . | 2% | .
CCNC(=O)c1cc(S(=O)(=O)N(C)C)c(Cl)cc1Cl | -2 | . | -0.6 | -5% | -5
Cn1c(O)c(C=NCCN2CCNCC2)c(=O)[nH]c1=O | . | . | -3.6 | 0% | 5
O=C(Cn1cnc2cc([N+](=O)[O-])ccc2c1=O)Nc1cccc(S(=O)(=O)N2CCOCC2)c1 | 0 | . | -3.2 | -8% | 0
CCOC(=O)c1cnc2c(-c3ccccc3)c(C)nn2c1N | -4 | 7 | -1.3 | -2% | -3
CCOC(=O)c1nn(-c2ccc(F)cc2)c(=O)c2c(N)scc12 | 2 | . | 22 | 6% | 0
COc1ccc2nc(SCC(=O)NN)cc(C)c2c1 | -12 | -3 | 42* | -2% | -11
N#Cc1cc2cc3c(cc2nc1SCC(=O)N1CCCC1)OCCO3 | . | . | 0.7 | . | -9
COc1ccc(Cn2nnnc2CN(CCCN2CCOCC2)Cc2cc3cc(OC)ccc3[nH]c2=O)cc1 | 16 | . | -0.8 | -1% | 4
CCOCCCNCc1cc(Cl)cc(Cl)c1OCC | 0 | . | 0.4 | -1% | -6
CCOC(=O)C1(CCOc2ccccc2)CCN(Cc2cccc(OC)c2O)CC1 | . | . | 0.4 | . | 0
OCC1(Cc2cccc(C(F)(F)F)c2)CCN(Cc2cc3ccccc3o2)CC1 | -37 | . | 0.1 | 71% | 22
COc1ccc(S(=O)(=O)Cc2ccccc2)cc1N | -9 | -28 | . | -6% | 8
COCCNC(=O)c1c(N)sc2c1CCCC2 | 10 | -12 | -4.7 | 4% | -7
CCOCCCNC(=O)C1CCN(S(=O)(=O)c2ccc(C)cc2)CC1 | -2 | -1 | 3.9 | -2% | -4
O=c1c2ccccc2c(-c2ccccc2)nn1Cc1ccccc1 | 0 | -19 | -1.1 | 6% | 21
Cc1cc(S(=O)(=O)Nc2ccc3c(c2)n(C)c(=O)n3C)ccc1F | -2 | . | 1.4 | 6% | -2
Cc1cc(C)c(C(=O)CSc2nnc(C)s2)c(C)c1 | -5 | . | 0.1 | 8% | 77
CN(C)C(=O)N1CCC(C(=O)NCc2ccc(F)cc2Cl)CC1 | -1 | -21 | -0.7 | 12% | -3
COc1ccccc1C(=O)Nc1ccc(C)cc1C(=O)c1ccccc1 | -8 | -20 | 10 | -4% | 82
CCO[C@H]1OC(C(=O)N2CCCCCCC2)=C[C@@H](c2csc3ccccc23)[C@@H]1CCCO | -7 | . | 10 | . | 0
COCCNC(=O)COC(=O)C1=Cc2ccccc2OC1 | 9 | . | -0.7 | -9% | -3
CC(C)Cc1nnc(NC(=O)c2cccc(S(=O)(=O)N3CCN(C)CC3)c2)s1 | . | . | -2.9 | . | -9
O=C(Cn1ncc2c(=O)oc3ccccc3c21)N1CCN(c2ccccn2)CC1 | 5 | -32 | -1.9 | -8% | -11
CSc1ccccc1C(=O)NCCc1ccc(S(=O)(=O)N2CCCCC2)cc1 | -6 | -13 | 0.0 | -7% | -8
COc1cccc(/C=C2\Sc3ccc(C(=O)NCC4CCCO4)cc3N(C)C2=O)c1 (configuration not stated) | . | . | -4.2 | . | 98
N#Cc1cnn(Cc2ccccc2)c1N | -1 | -37 | 2.0 | 2% | -2

# Some of the entries so far, field by field.
O=C(COC(=O)c1ccc(O)cc1)Nc1ncc(Cl)cc1Cl
  Arbovirus inh: 3 | YopH inh: . | RecA intein inh: 1.9 | Mtb growth: -3% | Mtb bLac sens: 1

O=c1c2ccccc2ncn1-c1ccc(Cl)c(Cl)c1
  Arbovirus inh: -1 | YopH inh: -36 | RecA intein inh: -0.8 | Mtb growth: -7% | Mtb bLac sens: -2

C=CCOc1ccccc1CN1CCCC(CCC(=O)N(C)CCc2ccccn2)C1 (configuration not stated)
  Arbovirus inh: 1 | YopH inh: . | RecA intein inh: -1.1 | Mtb growth: -1% | Mtb bLac sens: -5

# New compounds follow:
# Each structure is followed by: Arbovirus inh, YopH inh, RecA intein inh, Mtb growth, Mtb bLac sens
CCN1CCN(Cc2cc(=O)oc3cc(C)cc(C)c23)CC1
  -15, -25, -4.0, 16%, -3
Clc1ccc(-c2ccc(CNCC3CCCO3)o2)cc1 (configuration not stated)
  ., ., -3.1, 1%, -6
CN(CC(=O)Nc1ccccc1Cl)C(=O)COC(=O)c1nc(Cl)c(Cl)c(Cl)c1Cl
  ., ., 13, ., -5
CCOc1ccccc1N(C(=O)c1snc(C(N)=O)c1N)C(CC)C(=O)NC1CCCC1 (configuration not stated)
  ., ., -1.4, ., 3
O=C(CSc1ncnc2c1cnn2-c1ccccc1Cl)N1CCN(C(=O)c2ccco2)CC1
  4, -23, 1.2, 5%, 14
O=C(OC1CCOC1=O)c1cccc(S(=O)(=O)Nc2cccc(Cl)c2)c1 (configuration not stated)
  0, -20, 1.1, -3%, 0
CCC(=O)NNc1nc2c(F)cc(F)cc2s1
  -1, ., -4.2, 6%, -3
NCCCCCc1nnc(SCc2ccccc2Cl)o1
  6, -44, 0.2, -3%, 6
CN1CCc2nc(NC(=O)COc3ccc(C#N)cc3)sc2C1
  4, ., -9.9, -3%, -2
Cc1ccc(NC(=O)COC(=O)CNC(=O)c2ccco2)cc1
  4, ., -0.9, 1%, -10
Cc1nn(CC(=O)NCC(C)c2ccccc2)c(=O)c2cccn12 (configuration not stated)
  ., ., -0.2, ., -14
Clc1ccccc1OCc1nnc2n1CCCCC2
  ., ., -12, -4%, -10
CCCCN(C(=O)C(C)Oc1ccc(Cl)cc1)c1c(N)n(CCCC)c(=O)[nH]c1=O (configuration not stated)
  ., ., -0.1, ., -3
NCCCSC1=NCCCN1
  4, -40, -3.4, -18%, 3
N#CCCN(C(=O)COC(=O)CCc1c[nH]c2ccccc12)c1ccc(F)cc1
  ., ., 0.0, ., 72
COc1ccc(Cl)cc1NC(=O)CN(C)C(=O)Cn1cnc2c1c(=O)n(C)c(=O)n2C
  ., ., 4.3, ., -3
Cc1ccc2c(c1)/C(=N/OS(=O)(=O)c1ccccc1)CCS2
  ., -39, 2.6, 1%, 2
C#CCOCCOCCOCCNc1nc(N2CCN(C(=O)[C@H](CCC(=O)O)n3cc(C(N)CC(C)C)nn3)CC2)nc(N2CCN(C(=O)[C@H](Cc3cc4ccccc4[nH]3)n3cc(C(N)[C@H](C)CC)nn3)CC2)n1 (some centres not stated)
  1, ., -1.5, ., -1
C=CCn1c(N)c(C(=O)Nc2ccc(C)cc2)sc1=S
  -3, 16, 0.0, ., 5
O=C(Nc1ccccc1)Oc1ccc[nH]c1=O
  ., ., -0.2, -1%, 1
Cc1ccc2nc(C(F)C(F)(F)F)[nH]c2c1 (configuration not stated)
  -8, ., ., -5%, -11
COC(=O)c1ccc(Cl)cc1N(Cc1c(F)cccc1Cl)S(C)(=O)=O
  ., ., 3.9, -1%, 11
CCN(C(=O)CSc1nc2ccccc2n1CC)C1CCS(=O)(=O)C1 (configuration not stated)
  5, ., -0.7, -3%, -9
Cc1ccccc1OCC(O)Cn1c2ccccc2c2ccccc21 (configuration not stated)
  -35, -34, 12, 47%, 44
COCCN(C(=O)Nc1ccccc1)c1ccccc1
  -3, -9, -0.4, -2%, -16
COc1ccc(CCC(=O)N2CC(C)OC(C)C2)cc1 (configuration not stated)
  7, -25, -0.4, 5%, -7
O=C1NC[C@H](Cc2ccccc2)N(CCc2cccc(F)c2)C1=O
  ., ., -2.3, -5%, -5
COc1ccc(N2CCN(C(CNC(=O)c3cccs3)c3ccco3)CC2)cc1 (configuration not stated)
  ., ., -2.5, ., 4
